Rce1 inhib – blocks yeast Ras-converting enzyme; calls only; yeast membranes, quenched prenylated peptide cleavage fluorescence; Q03530; actives 0.27% (n = 290,000);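 active means fall in fluorescence gain of 50% or more versus controls, with final raw signal at or below 3038400; inconclusive means same 50% fall but final raw signal above 3038400; inactive means fall in fluorescence gain under 50%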;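 further: plate controls were neutral control wells for no effect and wells lacking membranes for full effect; tested at 10 µM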
Target sequence (Q03530 whole entry, looked up): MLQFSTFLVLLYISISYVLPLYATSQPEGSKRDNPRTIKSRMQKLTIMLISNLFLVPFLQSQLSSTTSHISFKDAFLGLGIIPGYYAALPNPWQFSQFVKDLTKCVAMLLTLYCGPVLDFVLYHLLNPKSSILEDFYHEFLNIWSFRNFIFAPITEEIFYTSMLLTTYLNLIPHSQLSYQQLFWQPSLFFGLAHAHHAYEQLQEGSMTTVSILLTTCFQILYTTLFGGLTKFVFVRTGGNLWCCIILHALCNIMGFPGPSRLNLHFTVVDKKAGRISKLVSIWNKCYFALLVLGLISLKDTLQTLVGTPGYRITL
MT1-MMP act inh – inhibitors of human MT1-MMP activation. P50281. HT1080 RFP-PRO-GFP cells, GFP/RFP ratio fluorescence, overnight; percent of plate control window, DMSO zero. AID 651647. actives 0.061% (n = 360,000). GFP/RFP ratio change, % at 20 µM;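 active means GFP/RFP ratio change of at least 30% with cell ATP level not reduced by more than half and red fluorescence within 50% of control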; further: strong numbers were not always called active
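Material – HT1080 RFP-PRO-GFP cells · Control set – DMSO wells and RFP-L50D-GFP cells · Incubation – overnight cell settling, then overnight compound exposure, 37 °C, 5% CO2 · Compound dosing – single-point 20 µM compound, 1% DMSO · Read-out – GFP/RFP fluorescence ratio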
UUG fidelity – yeast start codon fidelity modulation; activity score, % at 18.7 µM; S. cerevisiae UUG-firefly luciferase reporter, luminescence/redox ratio; AID 602363; actives 0.13% (n = 350,000);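 active means replicate mean at a twofold rise or more, about +100% in these data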;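 further: firefly luciferase made from a UUG start codon reports start codon fidelity; reporter light over untreated wells divided by growth signal over untreated wells; some hits fall short of that in this replicate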
eIF4H FP inh – inhibitors of RNA binding by human eIF4H | eIF4H fluorescence polarization binding assay | actives 0.94% (n = 290,000) | Q15056 | inhibition, % at 35 µM | AID 2012;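 active means 50% or more with normal probe brightness, or confirmed in later tests; inconclusive means above 50% with abnormal brightness, or retests that disagree; inactive means below 50% or failed in later tests; about a fifth of its hits are not listed in these tables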;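 further: calls also rest on retests at 20 µM and on dose response follow-up; 0% = protein and probe with vehicle and 100% = probe without protein; strong numbers were not always called active; many hits fall short of the cut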
CSC inhib – cancer stem cell inhibition; cancer stem cell-like cells viability, luminescence; inhibition, % at 7.5 µM; actives 1.1% (n = 300,000);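 active means mean at 75% or more and at least half the replicates too; inconclusive means mean and replicates disagree; tested in HMLE shEcad cells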;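 further: 0% = median of negative and 100% = median of positive control wells; the first replicate is given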
HIV Env fusion – blocks HIV Env-driven cell-cell fusion; HeLa-JRFL Env/CEM21 cell fusion, luciferase; inhibition, % at 12.3 µM; actives 1.1% (n = 360,000); AID 651610;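 active means mean replicate inhibition score of at least 50 and every replicate individually at or above 50; inconclusive means only one of the two criteria met; inactive means mean below 50 and not all replicates reaching 50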;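 further: 0% = plate neutral controls and 100% = maraviroc near 300 nM; one replicate is shown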
PABP FP inh – blocks human PABP binding to poly(A) RNA; actives 1% (n = 290,000); inhibition, % at 35 µM; fluorescence polarization; P11940; AID 2014;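 active means 50% or more with normal probe brightness, or confirmed in later tests; inconclusive means above 50% with abnormal brightness, or retests that disagree; inactive means below 50% or failed in later tests; about a fifth of its hits are not listed in these tables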;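 further: calls also rest on retests at 20 µM and on dose response follow-up; controls were probe without protein and protein plus probe with vehicle; some compounds called inactive have numbers as strong as hits; many hits fall short of the cut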
Target sequence (P11940 whole entry, looked up): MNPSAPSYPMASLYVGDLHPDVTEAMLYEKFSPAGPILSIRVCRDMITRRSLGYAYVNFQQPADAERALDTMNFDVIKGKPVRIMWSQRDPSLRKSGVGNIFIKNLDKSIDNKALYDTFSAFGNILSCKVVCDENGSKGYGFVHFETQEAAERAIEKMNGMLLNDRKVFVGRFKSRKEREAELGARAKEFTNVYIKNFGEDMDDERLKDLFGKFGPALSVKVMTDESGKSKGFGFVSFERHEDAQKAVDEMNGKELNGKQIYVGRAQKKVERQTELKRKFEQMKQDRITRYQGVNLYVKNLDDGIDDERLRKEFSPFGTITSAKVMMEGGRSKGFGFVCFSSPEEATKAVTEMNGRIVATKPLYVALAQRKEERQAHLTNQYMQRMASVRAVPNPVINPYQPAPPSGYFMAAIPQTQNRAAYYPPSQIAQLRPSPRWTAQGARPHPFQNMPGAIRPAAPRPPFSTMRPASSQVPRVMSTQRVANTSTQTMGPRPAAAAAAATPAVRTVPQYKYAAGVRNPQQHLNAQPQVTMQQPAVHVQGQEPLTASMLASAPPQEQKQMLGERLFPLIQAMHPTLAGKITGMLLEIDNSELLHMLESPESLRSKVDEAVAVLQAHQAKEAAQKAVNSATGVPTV
eIF4H FP inh retest – recorded beside eIF4H FP inh, whose call it bears; inhibition, %; compound at 20 µM; confirmation average;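 mean of two retest wells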
PABP FP inh retest – further read-out of PABP FP inh, marked with its call; inhibition, %; compound at 20 µM; confirmation repeats;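 mean of two retest wells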
MT1-MMP act inh RFP – further read-out of MT1-MMP act inh, marked with its call; RFP signal change, %; measured here: RFP expression control read;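 0 = vehicle wells; hits needed this value within 50% of zero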
An asterisk follows results filed as active; i = inactive; ? = inconclusive; · = not tested or not shown; + = active, no number.

SMILES	Rce1 inhib	MT1-MMP act inh	MT1-MMP act inh RFP	UUG fidelity	eIF4H FP inh	CSC inhib	HIV Env fusion	PABP FP inh	others
CCC(C)(C)n1nnnc1C(c1cc2cc(C)cc(C)c2[nH]c1=O)N1CCN(C(=O)c2ccco2)CC1 (stereo unspecified)	i	-11	-4	-2	-10	4	·	-2
CC(C)(C)n1nnnc1C(c1cccnc1)N(Cc1ccccc1)Cc1cccs1 (stereo unspecified)	i	-38	-27	-9	-4	-9	57*	-5
O=c1c2cc3c(nc2[nH]c(=S)n1-c1ccccc1)CCCC3	·	5	-1	-6	-5	-9	-1	-5
Cc1ccc(C(=O)NC(=S)NCc2cccnc2)cc1	i	7	4	-18	1	3	2	0
COc1ccccc1-c1n[nH]c(=S)n1-c1ccccc1	i	4	6	-10	6	6	·	-13
CCn1c(/C=C/c2c(C)n(CC)c3ccccc23)nc2ccccc2c1=O	i	-16	-1	-12	5	·	·	34
Cc1cc(NC(=O)COc2ccc3ccccc3c2Br)no1	·	1	1	14	·	6	·	·
CCOC(=O)c1c(-c2ccc(C)cc2)csc1NC(=O)c1ccc(N2C(=O)CCC2=O)cc1	i	0	-2	·	4	12	-51	-1
N#C/C(=C\c1ccc2c(c1)OCCO2)C(=O)Nc1ccc(C(=O)O)cc1	i	3	5	-4	2	-4	-9	-4
O=C(Cc1cnc2ncnn2c1)N1CCc2c([nH]c3ccccc23)C1c1ccccn1 (stereo unspecified)	i	-1	-2	-17	9	16	-2	1
Cc1[nH]c(C)c(S(=O)(=O)N(Cc2ccccc2)C(C)C)c1C(=O)N1CCCC1	i	2	1	2	-4	0	10	2
O=C(CCCn1nnnc1CN1CCOCC1)N1CCC(c2ccccc2F)C1 (stereo unspecified)	i	2	1	1	-6	·	-1	4
Cn1c(=O)n(C)c2cc(C(=O)c3ccccc3)ccc21	i	1	6	14	5	-10	28	22
Cc1cnc(C(=O)N2CCCC(C(=O)c3ccc(Cl)cc3C)C2)cn1 (stereo unspecified)	i	2	-3	11	-6	9	22	-4
CS(=O)(=O)c1ccc(Cl)c(C(=O)NCC2CCCCC2)c1	i	-1	-5	-2	-11	-4	12	8
CCCC(C(=O)NC(C)(C)CC)N(Cc1ccco1)C(=O)CNS(=O)(=O)c1ccccc1 (stereo unspecified)	i	0	0	-14	1	·	14	2
Cc1nn(-c2ccccc2)c(N2CCCC2)c1/C=N/NC(=O)c1cc(-c2ccccc2)nc2ccccc12	i	-10	-13	-14	-10	21	-6	-10
Cc1cc(C)nc(Sc2c(C)n[nH]c2C)n1	i	2	4	-14	-4	2	·	-1
Cc1ccc(N2C(=O)CC(N3CCN(C4CCc5ccccc5C4)CC3)C2=O)cc1 (stereo unspecified)	i	0	-2	·	1	-16	·	-8
COc1ccc(-n2c(C)cc(C(=O)CN3CCC(C)CC3)c2C)cc1	i	-3	-1	·	-2	-5	5	48
Cc1ccc(N2C(=O)C(O)(C(F)(F)F)C3=C2CC(C)(C)CC3=O)cc1C (stereo unspecified)	i	1	2	-3	2	5	·	17
CC(C)OCCCNC(=O)Cn1ccc2cc(S(=O)(=O)N3CCCCCC3)ccc21	i	3	-3	5	-10	-17	5	-7
Cc1nc(/N=C(\N)Nc2ccccc2)nc2ccccc12	i	·	·	·	-2	·	·	-5
COc1ccccc1N1C(=O)C2ON(c3ccccc3)C(c3ccc(N(C)C)cc3)C2C1=O (stereo unspecified)	·	·	·	·	-7	-4	·	3
O=C(N[C@@H](Cc1ccccc1)C(=O)O)c1cccs1	i	3	0	5	5	·	-5	4
Next section:
SMILES	Rce1 inhib	MT1-MMP act inh	MT1-MMP act inh RFP	UUG fidelity	eIF4H FP inh	CSC inhib	HIV Env fusion	PABP FP inh	others
COc1cc(C(=O)NC(=S)Nc2ccc([N+](=O)[O-])cc2C)cc(OC)c1OC	i	11	-23	-13	-12	10	-6	12
N#C/C(=C(/O)c1ccc([N+](=O)[O-])cc1)c1nnc2n1CCCCC2	i	-1	2	·	5	-12	-6	46
COc1ccc(/C(C)=N/OC/C(O)=C(\C#N)c2nc3ccccc3[nH]2)c(OC)c1	i	-2	1	·	-12	5	-1	-8
CCn1c(SCC(=O)Nc2ccc(OC)c(OC)c2)nnc1-c1cccs1	·	1	3	-8	-5	-12	2	2
CCSc1nc(CC)c2c(c1C#N)CCCC2	i	-2	0	·	-1	16	11	118	eIF4H FP inh retest=-4;PABP FP inh retest=5
Cn1c(=O)[nH]c(=O)c2c1nc(N1CCCC1)n2CCCSc1nc2ccccc2o1	i	2	0	7	-7	-11	-217	-2
COc1ccccc1-c1c(C)nn2c(C)cc(C)nc12	i	0	6	-3	8	-10	-24	2
Cc1ccc(OCCn2cccn2)c(C)c1	i	2	1	·	0	-1	-20	11
Cn1c(=O)oc2cc(S(=O)(=O)NCCN3CCN(c4ccccc4)CC3)ccc21	i	0	2	-16	1	3	15	11
CCc1c(C(=O)N/N=C/c2cccs2)nnn1-c1nonc1N	i	-1	-2	-17	2	-10	1	2
OC[C@H]1O[C@H](OCc2ccccc2)[C@H](O[C@@H]2OC[C@@H](O)[C@H](O)[C@H]2O)[C@@H](O)[C@@H]1O	i	2	6	1	·	-7	·	·
Cc1cccc(NC(=O)CCS(=O)(=O)c2ccc3c(c2)oc(=O)n3C)c1	i	1	3	-21	-18	-4	7	-12
O=C(NNC(=S)NC1CCCCC1)c1ccccc1Cl	i	1	1	-29	-3	-10	-6	9
COc1ccc(CCN2C(=O)c3[nH]nc(-c4ccccc4O)c3C2c2ccc(C)cc2)cc1OC (stereo unspecified)	·	0	-5	-14	-5	-13	101*	22
COc1ccc(NC(=O)CN(C)C(=O)C(NC(=O)c2ccco2)C(C)C)cc1 (stereo unspecified)	·	-1	4	13	·	·	7	·
CN(C)c1ccc(C(=O)C=Cc2ccc([N+](=O)[O-])cc2)cc1	·	4	-2	-12	·	·	-7	·
Cc1ccc(N2CCCn3c2cc(C)c(C#N)c3=O)cc1C	i	4	-4	-13	2	-13	24	0
CCN(c1ccccc1)S(=O)(=O)c1cccc(C(=O)NCC2(N(C)C)CCCCC2)c1	·	0	2	-7	·	·	2	·
O=C(CC(CC(=O)c1ccccc1)C(=O)O)c1ccccc1	i	-5	-1	-20	-5	-5	27	-3
CC(NCc1ccc(OCc2ccc(Cl)cc2)cc1)C(O)c1ccccc1 (stereo unspecified)	i	-6	-10	-11	-11	102*	8	2
COc1ccc(S(=O)(=O)N2CCN(Cc3c[nH]c4ccccc34)CC2)cc1	i	0	7	15	-5	-7	·	-1
Nc1c2c(nc3ccn(-c4ccccc4)c(=O)c13)CCCCC2	i	6	5	3	6	-6	·	4
Cc1cc(C)c(S(=O)(=O)N2CCC(C(=O)OCc3c(C)noc3C)CC2)c(C)c1	·	-4	-5	-4	·	2	·	·
O=C(Nc1ncc(Cc2cc(Cl)ccc2Cl)s1)c1ccc([N+](=O)[O-])cc1	i	-12	-30	·	-4	40	-75	4
O=C(c1cnc2ccc(Cl)cc2c1Cl)N1CCOCC1	i	-2	0	·	1	·	17	6

Entries listed so far that have fluorine (2):
SMILES	Rce1 inhib	MT1-MMP act inh	MT1-MMP act inh RFP	UUG fidelity	eIF4H FP inh	CSC inhib	HIV Env fusion	PABP FP inh	others
O=C(CCCn1nnnc1CN1CCOCC1)N1CCC(c2ccccc2F)C1 (stereo unspecified)	i	2	1	1	-6	·	-1	4
Cc1ccc(N2C(=O)C(O)(C(F)(F)F)C3=C2CC(C)(C)CC3=O)cc1C (stereo unspecified)	i	1	2	-3	2	5	·	17

Following part
SMILES	Rce1 inhib	MT1-MMP act inh	MT1-MMP act inh RFP	UUG fidelity	eIF4H FP inh	CSC inhib	HIV Env fusion	PABP FP inh	others
Cc1cs/c(=N\N=C\c2ccc(O)cc2)n1Cc1ccco1	i	-2	-3	·	15	-1	-4	5
CCCCC[C@@H]1C=C(C(=O)O)[C@H](c2ccc(OC)c(OC)c2)N1S(=O)(=O)c1ccc(C)cc1	·	6	7	-10	·	·	-1	·
CC(=O)NC(c1cccc(F)c1)c1nc(-c2ccc(N(C)C)cc2)cs1 (stereo unspecified)	·	1	-5	-6	·	·	-36	·
CCOC(=O)C1=CCN(S(=O)(=O)c2ccccc2C)C1c1cccc(F)c1 (stereo unspecified)	·	0	-5	-8	·	·	7	·
Cc1ccc(C(=O)CSc2ncnc3sc4c(c23)CCCC4)cc1	i	2	-1	-11	0	-5	·	-4
C=CCNC(=O)/C(=C/c1cccc([N+](=O)[O-])c1)NC(=O)c1ccco1	i	0	2	·	-8	0	16	4
O=C(c1ccc(COc2ccccc2Cl)o1)N1CCOCC1	i	3	2	-14	-7	-8	24	18
CCOC(=O)CC1(NC(=O)C2CCC(=O)N(CCc3ccccc3)C2)CCCCC1 (stereo unspecified)	i	-4	0	7	-6	-10	-8	9
CC(C)N1CCN(Cc2ccc(OCc3ccccc3)cc2)CC1CCO (stereo unspecified)	+	0	2	·	-4	77*	-5	-6
COC(=O)c1cc(NC(=O)Cc2ccccc2[N+](=O)[O-])cc(C(=O)OC)c1	i	11	4	-3	-2	-3	-9	-1
COc1ccccc1OCC(=O)Nc1ccc(N2CCOCC2)cc1N1CCOCC1	·	-1	6	5	·	8	·	·
O=C(CCc1nc(-c2ccc(Cl)cc2)no1)NCc1ccccc1CN1CCOCC1	·	-4	-1	-5	·	-4	23	·
COc1cccc(-c2nc(N3CC(C)CC(C)C3)c3ccccc3n2)c1O (stereo unspecified)	i	-5	0	-2	-10	·	·	-2
C=CCN1C(=O)C(CC(=O)Nc2ccccc2)N(Cc2ccccn2)C1=S (stereo unspecified)	i	1	2	-10	-4	-19	8	3
NC(=O)Cc1ccc(C(=O)c2ccccc2)s1	i	2	1	-40	3	-8	7	-1
Cc1cc(Cl)ccc1NC(=O)C1COc2ccccc2O1 (stereo unspecified)	i	1	-4	-7	-10	34	-36	8
CC1(C)Oc2ccc3ccc(=O)oc3c2C[C@H]1O	?	-1	-1	-3	-10	-1	0	-9
CC(=O)Nc1ccc(SCC(=O)OCC(=O)NC(=O)NCc2ccco2)cc1	i	3	6	-1	-3	6	-18	7
O=C(CSCc1nc2c(nnn2Cc2ccc(F)cc2)c(=O)[nH]1)Nc1cccc(C(F)(F)F)c1	i	-4	0	·	15	3	38	20
CC(=O)Nc1ccc(S(=O)(=O)Nc2nc3ccccc3s2)cc1	i	-3	0	·	-5	·	-18	-6
Cc1cccc(CN2CCN(C(=O)CN(C)C(C)C(=O)Nc3ccc(C(N)=O)cc3)CC2)c1 (stereo unspecified)	·	-1	1	-4	·	-7	-2	·
CC(=O)c1cc(-c2ccc(F)cc2)n(CC(=O)NCc2cccs2)c1C	i	-1	1	-13	-9	-3	·	2
CCCOc1cccc(NC(=O)OC2CCN(C)CC2)c1	i	0	1	-18	1	47	·	-2
CCn1c(=O)c2[nH]c(SC)nc2n(CC)c1=O	·	-3	1	-15	·	·	-11	·
COc1ccc(S(=O)(=O)N(c2onc(C)c2Cl)S(=O)(=O)c2ccc(OC)cc2)cc1	i	-2	0	5	-5	-11	-15	-6
CCN(CC)C(=O)c1cccc(-c2csc(C(O)c3cccc(OC)c3)n2)c1 (stereo unspecified)	·	-6	-19	-13	·	·	4	·
CCCCC[C@H](O)/C=C/[C@@H]1[C@@H](CCCCCCC(=O)O)[C@@H](O)C[C@H]1O	i	3	4	-10	-12	-5	·	3
CCCCN(C(=O)Cn1nnc2ccccc21)C(C(=O)NCCOC)c1ccc(OC)cc1OC (stereo unspecified)	i	-1	1	-14	1	-15	·	-10

High-throughput results (PubChem)
